# Screening data: PubChem BioAssay, National Center for Advancing Translational Sciences (NCATS)
# Cruzain inh noDet = qHTS Assay for Promiscuous and Specific Inhibitors of Cruzain (without detergent) | purified cruzain, Z-FR-AMC fluorescence, no detergent | Potency, µM, for the others: max response, negative = inhibition, usual class: inhibitors | 200,000 tested, 2.3% active | AID 1476, 2009;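 also: plate controls were enzyme without inhibitor for no effect and buffer without enzyme for full effect; nearly all actives have a fitted effect of over 40% in size; top concentration of the series not given in the record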
# Target sequence (P25779 123-467 limits assumed): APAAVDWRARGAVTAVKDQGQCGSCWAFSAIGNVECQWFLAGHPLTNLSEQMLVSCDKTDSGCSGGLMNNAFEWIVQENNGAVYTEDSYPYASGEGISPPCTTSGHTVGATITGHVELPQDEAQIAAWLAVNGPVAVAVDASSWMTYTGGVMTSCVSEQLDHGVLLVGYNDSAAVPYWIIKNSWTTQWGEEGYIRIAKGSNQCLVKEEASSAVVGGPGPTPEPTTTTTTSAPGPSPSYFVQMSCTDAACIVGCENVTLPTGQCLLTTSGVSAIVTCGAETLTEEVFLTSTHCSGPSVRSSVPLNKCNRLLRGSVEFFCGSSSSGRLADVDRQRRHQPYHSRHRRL
#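 Purified cruzain at 1.5 nM, pre-incubated 15 min with compound at room temperature in 100 mM sodium acetate pH 5.5, 5 mM DTT, 0.00005% Triton X-100. Reaction started with 2 uM Z-FR-AMC; AMC fluorescence increase over 60 s gives rate.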
# 2A StopGo = High Throughput Screening for Foot and Mouth Disease Virus Antivirals; 410,000 tested, 1.2% active; Potency, µM (doses to about 57.9 µM), for the others: top-dose signal change, negative = less light; human cells with a luciferase reporter of 2A StopGo recoding; control for the full effect not named in the record; active = well fitted falling curve with a large enough effect; inconclusive = small, poorly fitted or top-dose-only effect; inactive = no such curve, though single readings can be large or run the other way; tested in HEK293T cells; also: % is scaled to controls: 0 for no effect and ±100 for the full control effect; nearly all actives have a fitted effect of over 45% in size; luciferase light after 4 h
# NS1 inh = qHTS Assay for Inhibitors of Influenza NS1 Protein Function; 270,000 tested, 0.4% active; Potency, µM (titrated, usually from 46.1 µM), inactives show top-dose activity, positive = more growth; AID 2326, 2010; S. cerevisiae slowed by influenza A NS1, growth recovery by OD600; active means well fitted rising curve with a large enough effect; inconclusive means small, poorly fitted or top-dose-only effect; inactive means no such curve, though single readings can be large or run the other way; also: nearly all actives have a fitted effect of over 50% in size
#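 S. cerevisiae expressing influenza A NS1, grown in glucose, washed, then diluted 1:100 into pH 6.0 -URA galactose medium with 23 nl compound. Growth recovery read as OD600; NS1-free strain serves as control.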
# MARV entry inh = qHTS for inhibitors of binding or entry into cells for Marburg Virus; Marburg virus pseudotyped entry inhibition, cell reporter; control for the full effect not named in the record; about a third of the inactives were read at about 46 µM; Potency, µM (series often up to 37.8 µM), inactives show at the highest dose activity change, negative = inhibition, actives largely listed as inhibitors; 300,000 tested, 1.8% active; AID 540276, 2011; active = well fitted inhibition curve with a large enough effect; inconclusive = small, poorly fitted or top-dose-only effect, or effect the other way; inactive = flat fitted curve, though single readings scatter; tested in HEK293 cells; about a fifth of its hits are not listed in these tables; also: % is scaled to controls: 0 for no effect and ±100 for the full control effect; luciferase read-out
# RE007 growth inh = qHTS Assay for Inhibitors of the HIV-1 protein Vpr. S. pombe RE007 Vpr strain, BacTiter-Glo ATP luminescence, 24 h; control for the full effect not named in the record. Potency, µM (series often up to 92.2 µM), for inactives: top-dose activity change, negative = less growth. 360,000 tested, 0.21% active. AID 651644, 2012; active = well fitted falling curve with a large enough effect; inconclusive = small, poorly fitted or top-dose-only effect; inactive = no such curve, though single readings can be large or run the other way;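 also: % is scaled to controls: 0 for no effect and ±100 for the full control effect; nearly all actives have a fitted effect of over 50% in size; the assay follows cell death caused by Vpr and the record does not say whether a fall means rescue or toxicity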
#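 Fission yeast strain RE007, carrying one chromosomally integrated HIV-1 vpr copy, was seeded at OD 0.01 in PMG+AL medium with 23 nL pinned compound. After 24 h at 30 °C and 99% humidity, viability was read by BacTiter-Glo luminescence.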
# LASV entry inh = qHTS for Inhibitors of binding or entry into cells for Lassa Virus | Lassa virus pseudotype entry inhibition, cell reporter; control for the full effect not named in the record | Potency, µM (titrated, usually from 37.9 µM), for the others: top-dose activity change, negative = inhibition, actives largely listed as inhibitors | 300,000 tested, 1.2% active | AID 540256, 2011; active means well fitted inhibition curve with a large enough effect; inconclusive means small, poorly fitted or top-dose-only effect, or effect the other way; inactive means flat fitted curve, though single readings scatter; tested in HEK293 cells; also: % is scaled to controls: 0 for no effect and ±100 for the full control effect; nearly all actives have a fitted effect of over 50% in size; luciferase read-out
# Cruzain inh Det = qHTS Assay for Promiscuous and Specific Inhibitors of Cruzain (with detergent). 200,000 tested, 0.43% active. AID 1478, 2009. Potency, µM, for inactives: max response, negative = inhibition, most hits filed as inhibitors. purified cruzain, Z-FR-AMC fluorescence, 0.01% Triton;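 also: plate controls were neutral wells for no effect and buffer without enzyme for full effect; nearly all actives have a fitted effect of over 40% in size; top concentration of the series not given in the record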
#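 Cysteine protease activity tested under reducing, mildly acidic conditions (100 mM sodium acetate pH 5.5, 5 mM DTT) plus 0.01% Triton X-100. Cruzain 1.5 nM; substrate Z-FR-AMC 2 uM; 15 min compound preincubation at room temperature.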
# SARS PLpro yeast = qHTS of Yeast-based Assay for SARS-CoV PLP. 330,000 tested, 0.19% active. S. cerevisiae expressing SARS-CoV PLpro, growth rescue; control for the full effect not named in the record. Potency, µM (highest dose often 32.9 µM), inactives show at the highest dose activity, positive = growth rescue; active means well fitted rising curve with a large enough effect; inconclusive means small, poorly fitted or top-dose-only effect; inactive means no such curve, though single readings can be large or run the other way; also: 0% is about no effect; nearly all actives have a fitted effect of over 55% in size; growth read by luminescence after 48 h
# The depositor's hits bear a star; u = inconclusive; x = no result given; & = joins results of further samples; [ ] = another dose, or the depositor's remark. Unless noted, calls follow the shape of the dose curve; as a rule, active = well fitted curve in the direction sought with a large enough effect; inconclusive = small, poorly fitted or top-dose-only effect, or another doubt; inactive = no such curve, though single readings can be large; an effect the other way counts as inactive or inconclusive. Potency is read from the fitted curve at half-maximal effect. Rows were taken by chance; any-hit rate near 4.5%.
compound	Cruzain inh noDet	2A StopGo	NS1 inh	MARV entry inh	RE007 growth inh	LASV entry inh	Cruzain inh Det	SARS PLpro yeast
CC(C)OCCCNC(=O)c1ccc(CS(=O)(=O)Cc2ccccc2F)o1	-4%	-23%	0%	4%	1%	3%	1.7%	0%
CC(C)c1ccc(C(=O)NN2C(=O)C3CCCCC3C2=O)cc1 (configuration not stated)	-8%	51%[activator]	3%	10%	3%	u	-0.3%	3%
CCOc1ccc(C(C)NC(=O)c2ccccc2F)cc1 (configuration not stated)	-5%	-15%	-4%	11%	100%	1%	-1.7%	5%
CC(C)Sc1nc2[nH]ncc2c(=O)[nH]1	x	-6%	-2%	-10%[46.1 µM]	2%	-2%	x	0%
Cc1ccc2c(Cl)c(C(=O)NCCc3ccccc3)sc2c1	-7%	38%[activator]	-2%	0%	-14%	-9%	-7.3%	0%
CCc1ccc(OC(C)C(=O)Nc2ccc(S(=O)(=O)Nc3cc(C)on3)cc2)cc1 (configuration not stated)	x	-6%	12%	-9%[46.1 µM]	1%	-1%	x	1%
O=C1NC2(CCCCC2)C(=O)N1Cc1cccc(C(F)(F)F)c1	x	-7%	x	1%	-4%	-8%	x	-4%
Cc1ccc(CC2CC(=O)N(c3cc(Cl)ccn3)C2=O)cc1 (configuration not stated)	x	7%	-1%	1%	-10%	4%	x	1%
CCOC(=O)c1[nH]c(C)c(C(=O)OCC(=O)Nc2sc3c(c2C#N)CCCCC3)c1C	x	-14%	0%	u	-5%	-5%[46.1 µM]	x	0%
COc1ccc(Br)cc1S(=O)(=O)N1CCN=C1c1ccccc1	x	23%	0%	24%	1%	12%	x	-5%
COc1ccccc1/C=N/NC(=O)C(NC(=O)c1ccccc1)=C(C)C	-1%	5%	6%	18%	5%	10%	-4.6%	5%
CSCCC(NC(=O)c1ccc(=O)n(C)n1)c1nc2ccccc2[nH]1 (configuration not stated)	-4%	11%	-2%	-6%	-7%	3%	-0.6%	-5%
Cc1cc2nc(C)n(CCCN)c2cc1C	-7%	-2%	1%	-25%	-15%[3.69 µM]	2%	-3.0%	-5%
CC(=O)c1c(C)[nH]c(C(=O)CSc2ccc(F)cc2)c1C	x	12%	-1%	u	-7%	u	x	0%
COc1ccc(S(=O)(=O)N2CCC(C(=O)N3CCCC3)CC2)cc1Cl	16%	-7%	-4%	-9%	6%	6%	2.3%	1%
COc1ccc(N2CC(C(=O)Nc3nc(-c4ccccc4)c(C(C)=O)s3)CC2=O)c(OC)c1 (configuration not stated)	x	-25%	x	13%	8%	-5%	x	1%
CCCCNC1=CC(=O)C(=O)c2ccccc21	x	35µM*	-3%	16µM*	-18%	u	x	-1%
Cc1nn(C(C)C(=O)NCc2cccs2)c(=O)c2nn(-c3ccccc3)c(C)c12 (configuration not stated)	x	-13%	0%	x	-1%	x	x	2%
COCCCn1cnc2oc3nc4ccccc4nc3c2c1=O	6%	-32%	-16%	u	-2%	-17%	-11%	5%
CON/C=C(\C=Nc1ccccc1)c1ncc(C(F)(F)F)cc1Cl	-11%	-3%	5%	u	-8%	11%	-11%	-14%
COc1ccc(OC)c(CCNC(=O)CN2C(=O)CC(C)(C)S(=O)(=O)c3ccccc32)c1	3%	-18%	-17%	x	6%	x	3.6%	-2%
CCCCNC(=O)c1ccccc1C(=O)NCCCC	2%	-12%	2%	-13%	-7%	1%	0.6%	1%
CCOC(=O)N1CCC(NCc2c(C(=O)N(C)Cc3ccccc3)nc3ccccn23)CC1	x	-8%	0%	14%[46.1 µM]	-21%	-26%[46.1 µM]	x	0%
CSc1nc(-c2ccccc2)c2cc(Cl)ccc2n1	2%	-5%	3%	-1%	-20%	2%	-2.2%	11%
CCc1nn(CC(=O)NCCCN2CCN(CC)CC2)c(=O)c2cc3occc3n12	-8%	-2%&-19%	8%	u	5%	2%[46.1 µM]	-5.9%	12%
COc1cc(OC)c(NC(=O)N2CCN3CCCCC3C2)cc1Cl (configuration not stated)	-5%	-1%	x	x	x	-6%[46.1 µM]	-1.5%	x
Cc1cc(/C=C2/C(=O)NC(=O)N(Cc3ccco3)C2=O)c(C)n1-c1ccccc1O	x	u	10%	x	-13%	x	x	1%
CCN(Cc1ccccc1)S(=O)(=O)c1ccc(S(=O)(=O)N2CCN(C)CC2)cc1	3%	-20%	1%	1%	14%	-23%	-0.8%	2%
CCC(C(=O)NCCCN1CCN(CC)CC1)n1nc(C)n2c(cc3occc32)c1=O (configuration not stated)	x	-9%	15%	1%[46.1 µM]	-14%	0%[46.1 µM]	x	-1%
O=C(CCS(=O)(=O)c1ccc(Cl)cc1)N1CCN(c2ccccc2F)CC1	0%	-8%	-31%	-4%	-11%	-10%	1.9%	-19%

# 2 of these compounds in another layout:
# Values run as follows: Cruzain inh noDet, 2A StopGo, NS1 inh, MARV entry inh, RE007 growth inh, LASV entry inh, Cruzain inh Det, SARS PLpro yeast
CC(C)c1ccc(C(=O)NN2C(=O)C3CCCCC3C2=O)cc1 (configuration not stated)
 : -8%, 51%[activator], 3%, 10%, 3%, u, -0.3%, 3%
COc1ccc(N2CC(C(=O)Nc3nc(-c4ccccc4)c(C(C)=O)s3)CC2=O)c(OC)c1 (configuration not stated)
 : x, -25%, x, 13%, 8%, -5%, x, 1%

# Next section
compound	Cruzain inh noDet	2A StopGo	NS1 inh	MARV entry inh	RE007 growth inh	LASV entry inh	Cruzain inh Det	SARS PLpro yeast
CN(C(=O)c1cnc2n(c1=O)CCS2)C1CCCCC1	-3%	-4%	2%	x	0%	x	3.2%	11%
c1ccc(-c2ccc(C3=Nn4c(nnc4-c4cc(-c5ccccc5)n[nH]4)SC3)cc2)cc1	3.2µM*	-25%	26%	u	-16%	u	1.1%	0%
COc1ccc(CNC(=O)C2CCN(c3nccs3)CC2)cc1	0%	-13%	2%	-1%	-8%	-1%	-0.5%	-5%
CCCN1Cc2cccc(C(=O)NC(C)c3cccs3)c2C1=O (configuration not stated)	6%	18%	-11%	u	8%	u	-3.3%	-5%
CCc1[nH]c(=O)[nH]c1C(C)S(=O)(=O)c1ccc(C)cc1 (configuration not stated)	x	-17%	7%	8%[46.1 µM]	0%	u	x	-1%
Cc1cc(NC(=O)Nc2ccc(C)c(C)c2)no1	x	17%	-6%	u	-1%	11%	x	-1%
CCC(OC(=O)C1=Cc2ccccc2OC1)C(=O)NC1CCCC1 (configuration not stated)	-6%	x	7%	-5%	1%	-10%	-0.2%	2%
CSc1ncc(C(=O)Nc2ccc(C)cc2C)c(C)n1	x	-10%	-3%	-15%[46.1 µM]	8%	4%[46.1 µM]	x	1%
CCN(CC)CCNC(=O)c1ccc(NC(=O)c2ccc(S(=O)(=O)N(C)c3ccccc3OC)cc2)cc1	x	-16%	x	u	24%	11%	x	x
CCN(CC)S(=O)(=O)c1ccc(NC(=S)NC(=O)C(C)C)cc1	-1%	1%	12%	15%	0%	-10%	-2.7%	8%
CSCCC(NS(=O)(=O)c1ccc2c(c1)oc(=O)n2C)C(=O)NC1CCCc2ccccc21 (configuration not stated)	u	1%	-4%	x	6%	x	4.4%	4%
CCOC(=O)c1oc2ccccc2c1CN1CCOCC1	-8%	-23%	u	3%	-4%	3%	-1.2%	14%
CC(CCc1ccccc1)NC(=O)c1ccc(Br)o1 (configuration not stated)	-9%	4%	-42%	u	2%	14%	1.8%	-25%
COc1ccccc1C(=O)Nc1ccccc1SC(=O)c1ccccc1OC	x	14%	3%	x	-7%	x	x	-2%
COc1cccc(C(=O)NCCS(=O)(=O)NCCc2ccc(OC)c(OC)c2)c1	x	-7%	x	0%	-11%	u	x	4%
O=C(CCc1ccccc1)NCc1ccc2c(c1)CCN2C(=O)c1ccccc1	3%	-29%	x	x	x	-11%[46.1 µM]	1.6%	x
CN(C)C(=O)CCCc1nc(-c2ccc(Cl)cc2)no1	3%	30%[activator]	-6%	u	-2%	u	-0.8%	2%
COC(=O)c1ccccc1Oc1cc(C(F)(F)F)nc(-c2ccccn2)n1	x	-18%	x	20%[46.1 µM]	-9%	2%	x	x
COCc1nnc(NS(=O)(=O)c2c(C)cc(C)cc2C)s1	1%	20%	-1%	10%	24%	9%	-5.6%	7%
O=C(Nc1ccc2c(c1)Cc1cc([N+](=O)[O-])ccc1-2)C(F)(F)F	x	2%	x	20%	-11%	7%	x	x
O=C(O)CSc1nnc(-c2cccnc2)n1Cc1ccccc1	-7%	5%	0%	25%	7%	u	0.8%	-4%
CCOc1ccccc1NC(=O)CC(O)(C(F)(F)F)C(F)(F)F	12%	-14%	-12%	0%	2%	-16%	-2.4%	-4%
CC(C)CN(CC(C)C)c1ccc(/C=N/n2cnnc2)cc1[N+](=O)[O-]	x	u	3%	u	50%	-18%	x	-2%
CN(C)c1ccc(C(C(=O)NC2CCCC2)N(C(=O)c2csnn2)C2CC2)cc1 (configuration not stated)	x	-2%	1%	u	30%	u	x	0%
Cc1ccnc(N2CCN(c3cc(C)c(C#N)c4nc5ccccc5n34)CC2)c1	x	-4%	x	-21%	19%	-4%	x	x

# Compounds shown so far that have a cyano group:
compound	Cruzain inh noDet	2A StopGo	NS1 inh	MARV entry inh	RE007 growth inh	LASV entry inh	Cruzain inh Det	SARS PLpro yeast
CCOC(=O)c1[nH]c(C)c(C(=O)OCC(=O)Nc2sc3c(c2C#N)CCCCC3)c1C	x	-14%	0%	u	-5%	-5%[46.1 µM]	x	0%
Cc1ccnc(N2CCN(c3cc(C)c(C#N)c4nc5ccccc5n34)CC2)c1	x	-4%	x	-21%	19%	-4%	x	x
